From PubChem BioAssay
HIV Env fusion: HIV envelope-mediated fusion inhibition | HeLa-JRFL Env/CEM21 cell fusion, luciferase | inhibition, % at 12.3 µM | 360,000 tested, 1.1% active | AID 651610;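 active means mean replicate inhibition score of at least 50 and every replicate individually at or above 50; inconclusive means only one of the two criteria met; inactive means mean below 50 and not all replicates reaching 50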;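 further: 0% = plate neutral controls and 100% = maraviroc near 300 nM; one replicate is shown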
Active calls of the source: *; u = inconclusive; [ ] = dose if it differs, or a comment. Only part of the results is shown (hit frequency here may not be typical).

HIV Env fusion	SMILES
-17[16.7 µM]	CO[C@@H]1CN(C)C(=O)c2cc(NC(=O)C3CCCCC3)ccc2OC[C@H](C)N(Cc2nccs2)C[C@@H]1C
3[16.7 µM]	CCNC(=O)C[C@H]1CC[C@@H]2[C@H](COC[C@@H](O)CN2C(=O)Nc2ccc(C(F)(F)F)cc2)O1
3[16.7 µM]	CC(C)[C@H](C)NC(=O)N(C)C[C@@H]1OCc2ccccc2-c2ccccc2C(=O)N([C@H](C)CO)C[C@H]1C
62*	Cc1cc(N2CCN(C(=O)OC(C)(C)C)C[C@H]2C)ccc1N1CCS(=O)(=O)CC1
17[16.7 µM]	CO[C@H](CN(C)S(=O)(=O)c1cccc(Cl)c1)[C@@H](C)CN([C@H](C)CO)S(=O)(=O)c1ccc(Cl)cc1
-4[16.7 µM]	C[C@@H]1CN([C@H](C)CO)C(=O)c2c(c3ccccc3n2C)-c2ccccc2CO[C@@H]1CN(C)C
-5	COC(=O)[C@]12C[C@H](CC(=O)N3CCN(C(=O)C4CC4)CC3)C(=O)N(CCC3=CCCCC3)C1=C[C@H](COCc1ccccc1)O[C@@H]2C
10	COc1cccc(C(=O)N[C@@H](Cc2cccnc2)C(=O)N2CCC[C@H]2C(=O)NCc2ccccc2)c1
-23[16.7 µM]	CS(=O)(=O)N1[C@H](C#N)[C@@H](c2ccccc2-c2ccccc2F)[C@H]1CO
6	COCCN1C(=O)[C@H]2C[C@@]13O[C@H](c1ccc(C(F)(F)F)cc1)N=C3C[C@H](c1ccccc1)[C@H]2C
4	Cc1cccc(C)c1NC(=O)C1(C)CSCC(=O)N1CC(C)C (stereo unspecified)
-3[16.7 µM]	CO[C@@H]1CN(C)C(=O)c2cc(NC(C)=O)ccc2OC[C@H](C)N(Cc2cccnc2)C[C@H]1C
4[16.7 µM]	C/C=C/c1cccc(-c2nc(C(=O)NCc3ccncc3)cc3c2[C@H](CCO)N([S@@](=O)C(C)(C)C)C3)c1
-1[16.7 µM]	C[C@@H]1CN([C@@H](C)CO)S(=O)(=O)c2ccc(C#Cc3ccccn3)cc2O[C@H]1CN(C)C
-7[16.7 µM]	CO[C@H]1CN(C)C(=O)c2cc(NC(=O)C3CC3)ccc2OC[C@H](C)N(C(=O)c2ccccc2F)C[C@@H]1C
25[16.7 µM]	CC(C)NC(=O)NCC[C@H]1CC[C@@H](NS(=O)(=O)c2ccc(Oc3ccccc3)cc2)[C@@H](CO)O1
-34[16.7 µM]	C[C@H]1CN([C@@H](C)CO)C(=O)c2cccc(NS(=O)(=O)c3ccc(F)cc3)c2O[C@H]1CN(C)Cc1ccc(Oc2ccccc2)cc1
-20[16.7 µM]	CCC(=O)Nc1ccc2c(c1)C(=O)N(C)[C@H]1CC[C@H](CC(=O)N[C@H](C)c3ccccc3)O[C@@H]1CO2
0[16.7 µM]	CC(C)NC(=O)N(C)C[C@@H]1OCCCC[C@H](C)Oc2ccc(NC(=O)C3CCCCC3)cc2C(=O)N([C@H](C)CO)C[C@H]1C
-3[16.7 µM]	CO[C@H]1CN(C)C(=O)c2ccc(NC(=O)c3ccno3)cc2OC[C@H](C)NC[C@@H]1C
31[16.7 µM]	O=C(NC[C@@H]1CC[C@@H]2[C@@H](CN2Cc2cccc(Cl)c2)O1)C1CCOCC1
-4[16.7 µM]	C[C@H]1CN([C@@H](C)CO)C(=O)c2ccccc2-c2ccccc2CO[C@@H]1CN(C)S(=O)(=O)c1cccc(C#N)c1
-15[16.7 µM]	CN(C)CC(=O)Nc1ccc2c(c1)[C@H]1C[C@@H](CC(=O)NCc3cc(F)ccc3F)O[C@H](CO)[C@H]1O2
-7[16.7 µM]	COc1ccccc1NC(=O)Nc1ccc2c(c1)C(=O)N(C)C[C@@H](OC)[C@H](C)CN(C)[C@H](C)CO2
-28[16.7 µM]	CO[C@@H]1CC[C@H]2CCOc3ccc(C#N)cc3C(=O)N(C)C[C@@H](c3ccccc3)CC(=O)N(C)C[C@H]1O2
-16[16.7 µM]	C[C@H](O)C#Cc1cnc2c(c1)C(=O)N([C@@H](C)CO)C[C@@H](C)[C@@H](CN(C)C(=O)Cc1ccncc1)O2
-61	COC(=O)C1=C(C)N(Cc2ccccc2C(F)(F)F)C(=NCc2ccccc2C(F)(F)F)NC1c1cccc(C(F)(F)F)c1 (stereo unspecified)
43[16.7 µM]	O=C(C[C@H]1C[C@H]2c3cc(NS(=O)(=O)c4ccc(F)cc4)ccc3O[C@H]2[C@@H](CO)O1)NCc1ccc(Oc2ccccc2)cc1
-5[16.7 µM]	COc1cccc(NC(=O)Nc2ccc3c(c2)C(=O)N(C)C[C@H](OC)[C@@H](C)CN(C)[C@H](C)CO3)c1
-15[16.7 µM]	O=C(NC[C@@H]1CC[C@H]2[C@H](CN2Cc2cccc(Cl)c2)O1)C1CC1
16[16.7 µM]	COc1ccccc1-c1ccc2c(c1)O[C@H](CN(C)CC1CC1)[C@H](C)CN([C@H](C)CO)S2(=O)=O
0[16.7 µM]	O=C(Nc1ccc2c(c1)[C@H]1C[C@H](CC(=O)N3CCCCC3)O[C@H](CO)[C@H]1O2)NC1CCCC1
-24[16.7 µM]	CN1C(=O)c2cc(NC(=O)CC(F)(F)F)ccc2OC[C@H]2O[C@@H](CC(=O)NC3CCC3)CC[C@@H]21
u	COc1cccc(NC(=O)Nc2ccc3c(c2)C(=O)N(C)[C@@H]2CC[C@@H](CC(=O)NCCc4ccccc4)O[C@@H]2CO3)c1
-6[16.7 µM]	COCCNC(=O)C[C@H]1CC[C@@H]2[C@H](COc3ccc(NC(=O)Cc4ccccc4)cc3C(=O)N2C)O1
-23[16.7 µM]	COc1cccc(S(=O)(=O)Nc2ccc3c(c2)OC[C@H](C)N(Cc2ccccc2F)C[C@H](C)[C@@H](OC)CN(C)C3=O)c1
13[16.7 µM]	O=S(=O)(NC[C@@H]1CC[C@@H]2[C@@H](CN2Cc2ccccc2C(F)(F)F)O1)c1ccccc1
-5[16.7 µM]	CO[C@H]1CN(C)C(=O)c2cc(NC(C)=O)ccc2OC[C@H](C)N(Cc2cccnc2)C[C@@H]1C
14[16.7 µM]	C[C@H]1CN([C@@H](C)CO)C(=O)c2c(c3ccccc3n2C)-c2ccccc2CO[C@H]1CN(C)C(=O)c1ccncc1
-6[16.7 µM]	C[C@H]1CN([C@@H](C)CO)C(=O)c2cc(NC(=O)Cn3cnnn3)ccc2O[C@H]1CN(C)S(=O)(=O)c1ccc(Cl)cc1
9[16.7 µM]	O=C(C[C@H]1C[C@@H]2c3cc(NC(=O)c4ccc5c(c4)OCO5)ccc3O[C@@H]2[C@@H](CO)O1)NCc1ccc(Oc2ccccc2)cc1
-37[16.7 µM]	C[C@@H]1CN([C@H](C)CO)C(=O)c2c(c3ccccc3n2C)-c2ccccc2CO[C@@H]1CN(C)Cc1cccnc1
-28	COc1ccccc1Cc1c(-c2ccccc2)nc2ccc(C)cn12
22[16.7 µM]	COc1ccccc1CNC(=O)C[C@@H]1C[C@@H]2c3cc(NS(=O)(=O)c4ccc(F)cc4)ccc3O[C@@H]2[C@@H](CO)O1
-17[16.7 µM]	C/C=C/c1ccc([C@@H]2[C@@H](CO)N(C(C)=O)C23CN(C(=O)NC2CCCC2)C3)cc1
-10	C[C@H]1COc2cccc(NCCO)c2S(=O)(=O)N1
-15	O=C(Nc1ccc(Cl)cc1)OCC12COCN1COC2
0	O=C(C(=O)N1CCC(CNC(=O)c2cccs2)CC1)c1cc2ccccc2o1
-34[16.7 µM]	COc1cccc(NC(=O)N(C)C[C@@H]2OCc3ccccc3-c3ccccc3C(=O)N([C@@H](C)CO)C[C@H]2C)c1
5[16.7 µM]	C[C@H](CO)N1C[C@H](C)[C@H](CN(C)Cc2ccc(Cl)c(Cl)c2)Oc2ccc(NC(=O)C3CC3)cc2CC1=O

Copied from the results shown, two compounds:
HIV Env fusion	SMILES
-17[16.7 µM]	CO[C@@H]1CN(C)C(=O)c2cc(NC(=O)C3CCCCC3)ccc2OC[C@H](C)N(Cc2nccs2)C[C@@H]1C
3[16.7 µM]	CCNC(=O)C[C@H]1CC[C@@H]2[C@H](COC[C@@H](O)CN2C(=O)Nc2ccc(C(F)(F)F)cc2)O1

In another format: results already given.
smiles | HIV Env fusion
Cc1cccc(C)c1NC(=O)C1(C)CSCC(=O)N1CC(C)C (stereo unspecified) | 4
CO[C@@H]1CN(C)C(=O)c2cc(NC(C)=O)ccc2OC[C@H](C)N(Cc2cccnc2)C[C@H]1C | -3[16.7 µM]

New compounds follow:
HIV Env fusion	SMILES
13[16.7 µM]	O=C(C[C@H]1C[C@H]2c3cc(NC(=O)c4cccnc4)ccc3O[C@H]2[C@H](CO)O1)NCCc1ccccc1
-17[16.7 µM]	CO[C@H]1CN(C)C(=O)c2ccc(NS(=O)(=O)c3ccc(Oc4ccccc4)cc3)cc2OC[C@H](C)NC[C@@H]1C
28[16.7 µM]	O=C(Nc1ccccc1F)N[C@H]1CC[C@H](CCNC(=O)C2CCCCC2)O[C@H]1CO
21[16.7 µM]	O=C(C[C@@H]1CC[C@H]2[C@@H](COC[C@@H](O)CN2Cc2ccc(Oc3ccccc3)cc2)O1)N1CCc2ccccc2C1
7[16.7 µM]	CC(C)NC(=O)NCC[C@H]1CC[C@H](NS(=O)(=O)c2ccc(Oc3ccccc3)cc2)[C@H](CO)O1
0[16.7 µM]	O=C(C[C@@H]1CC[C@@H]2[C@H](COC[C@@H](O)CN2C(=O)c2ccccc2)O1)NCCCN1CCOCC1
0	COC(=O)c1cc2c(c3c4cc(F)ccc4n(S(=O)(=O)c4cccc(C)c4)c13)C(=O)N(Cc1ccc(N(C)C)cc1)C2
24	O=C(COC(=O)c1ccc(O)cc1)Nc1cc(S(=O)(=O)N2CCOCC2)ccc1N1CCOCC1
4[16.7 µM]	C[C@H](CO)N1C[C@H](C)[C@H](CN(C)C(=O)[C@H](Cc2ccccc2)N(C)C)OCc2ccccc2-c2ccccc2C1=O
4[16.7 µM]	COc1ccccc1CNC(=O)C[C@H]1C[C@H]2c3cc(N(C)C)ccc3O[C@H]2[C@@H](CO)O1
u	O=C(NCc1ccccc1)[C@@H]1CCCN1C(=O)[C@H]1CCCN1C(=O)c1cc(F)cc(F)c1
-37[16.7 µM]	C[C@@H]1CN([C@@H](C)CO)C(=O)c2cc(NS(=O)(=O)c3ccc(F)cc3)ccc2O[C@@H](C)CCCCO[C@H]1CN(C)CC1CC1
2[16.7 µM]	CCC(=O)Nc1ccc2c(c1)OC[C@H](C)N(CC1CCCCC1)C[C@H](C)[C@H](OC)CN(C)C2=O
15[16.7 µM]	COCC(=O)Nc1ccc2c(c1)OC[C@H](C)N(Cc1cccnc1)C[C@@H](C)[C@H](OC)CN(C)C2=O
-7[16.7 µM]	C[C@H]1CN([C@@H](C)CO)C(=O)CCCn2cc(nn2)CO[C@H]1CN(C)Cc1ccc(Cl)c(Cl)c1
12[16.7 µM]	COc1cccc(CNC(=O)C[C@@H]2CC[C@@H]3[C@H](COc4ccc(NC(=O)c5cccs5)cc4C(=O)N3C)O2)c1
-3[16.7 µM]	Cc1noc(C)c1S(=O)(=O)N(C)C[C@H]1OCc2ccccc2-c2c(n(C)c3ccccc23)C(=O)N([C@H](C)CO)C[C@@H]1C
-16[16.7 µM]	CN(C)c1ccc2c(c1)[C@H]1C[C@@H](CC(=O)NCc3ccncc3)O[C@@H](CO)[C@H]1O2
-11[16.7 µM]	COc1ccc(NC(=O)N(C)C[C@H]2Oc3ccc(NC(=O)Cc4ccccc4)cc3CC(=O)N([C@@H](C)CO)C[C@H]2C)cc1
22[16.7 µM]	O=C(C[C@@H]1CC[C@@H](NC(=O)C2CCOCC2)[C@@H](CO)O1)NCc1ccccc1Cl
0[16.7 µM]	O=C(Nc1ccc2c(c1)[C@@H]1C[C@H](CC(=O)N3CCOCC3)O[C@@H](CO)[C@@H]1O2)Nc1ccccc1F
-52[16.7 µM]	O=C(C[C@H]1C=C[C@H](NC(=O)CCN2CCCCC2)[C@@H](CO)O1)Nc1ccccc1
13[16.7 µM]	O=C(C[C@@H]1CC[C@@H](NC(=O)CCN2CCCCC2)[C@H](CO)O1)Nc1nccs1
15[16.7 µM]	C[C@H]1CN([C@@H](C)CO)C(=O)c2ccccc2-c2ccccc2CO[C@@H]1CN(C)C(=O)Nc1ccnc(N2CCOCC2)c1
-8[16.7 µM]	COc1ccc2c3c([nH]c2c1)[C@H](CO)N(C(=O)c1cccnc1)CC31CN(Cc2cccnc2)C1

4 compounds drawn at random from those above:
HIV Env fusion	SMILES
15[16.7 µM]	C[C@H]1CN([C@@H](C)CO)C(=O)c2ccccc2-c2ccccc2CO[C@@H]1CN(C)C(=O)Nc1ccnc(N2CCOCC2)c1
24	O=C(COC(=O)c1ccc(O)cc1)Nc1cc(S(=O)(=O)N2CCOCC2)ccc1N1CCOCC1
-17[16.7 µM]	CO[C@H]1CN(C)C(=O)c2ccc(NS(=O)(=O)c3ccc(Oc4ccccc4)cc3)cc2OC[C@H](C)NC[C@@H]1C
4[16.7 µM]	C[C@H](CO)N1C[C@H](C)[C@H](CN(C)C(=O)[C@H](Cc2ccccc2)N(C)C)OCc2ccccc2-c2ccccc2C1=O

(list continues)
HIV Env fusion	SMILES
26[16.7 µM]	Cc1ccc(S(=O)(=O)N(C)C[C@@H]2Oc3ccc(NS(=O)(=O)c4cn(C)cn4)cc3C(=O)N([C@H](C)CO)C[C@H]2C)cc1
1[16.7 µM]	O=C(CN1CCOCC1)N[C@@H]1CC[C@H](CCNC(=O)C2CCC2)O[C@@H]1CO
8[16.7 µM]	C[C@@H]1CN([C@@H](C)CO)C(=O)c2cc(NS(=O)(=O)c3ccc(F)cc3)ccc2O[C@H]1CN(C)Cc1ccc(C(F)(F)F)cc1
7	COc1cc(CCC(C)=O)ccc1OC(=O)c1c(-c2c(F)cccc2Cl)noc1C
5[16.7 µM]	Cc1ccc(-c2cnc3c(c2)C(=O)N([C@@H](C)CO)C[C@H](C)[C@H](CN(C)S(C)(=O)=O)O3)cc1
